Source: PubChem BioAssay
VDR inh – Inhibitors of the vitamin D receptor (VDR): qHTS; Vitamin D3 receptor (Homo sapiens), P11473; VDR-SRC2-3 peptide fluorescence polarization, 2 h; Potency, µM, without a hit: max response, negative = inhibition, most hits filed as inhibitors; 400,000 compounds, 0.93% hits; active means well fitted inhibition curve with a large enough effect; inconclusive means small, poorly fitted or top-dose-only effect, or another doubt; inactive means no such curve, though single readings can be large or run the other way; further: series mostly up to about 120 µM
Target sequence (P11473 whole entry, looked up): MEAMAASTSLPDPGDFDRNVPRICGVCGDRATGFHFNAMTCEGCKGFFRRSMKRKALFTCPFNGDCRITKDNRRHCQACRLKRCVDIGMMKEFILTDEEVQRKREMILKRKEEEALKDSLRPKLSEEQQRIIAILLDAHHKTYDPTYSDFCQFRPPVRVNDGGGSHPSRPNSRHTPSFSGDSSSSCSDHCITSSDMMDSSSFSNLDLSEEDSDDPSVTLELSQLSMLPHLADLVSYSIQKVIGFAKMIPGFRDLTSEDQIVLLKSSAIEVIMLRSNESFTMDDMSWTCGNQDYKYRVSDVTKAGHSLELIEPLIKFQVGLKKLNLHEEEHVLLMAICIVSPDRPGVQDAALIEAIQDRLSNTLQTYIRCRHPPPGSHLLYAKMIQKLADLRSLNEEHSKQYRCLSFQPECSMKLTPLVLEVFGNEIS
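Two reagent solutions held at 4 deg C in the dark were dispensed, compounds pinned at 23 nl, and the mixture incubated 2 h at room temperature. Read-out: fluorescence polarization of VDR–SRC2-3 peptide binding.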
Starred values were filed as active, the others as inactive; & = joins results of further samples; [ ] = another dose, or the depositor's remark. On the % scale 0 is the no-effect control and ±100 the full control effect; potency means the concentration at half of the fitted maximal effect. A portion of the library (hit frequency here may not be typical).

NS(=O)(=O)c1ccc(N/N=C/c2ccccc2Br)cc1 was read as VDR inh -3%.
`CC(C(=O)Nc1ncc([N+](=O)[O-])s1)N1C(=O)c2ccccc2S1(=O)=O` (configuration not stated) gave VDR inh -15%.
For Cc1ccc(N=Cc2cc(C)n(C3CCCC3)c2C)cc1 the results were VDR inh 11%.
COc1ccc(NC2CCCN(C(=O)c3cccc(N(C)C)c3)C2)cc1 (configuration not stated) was read as VDR inh -17%.
For CCOC(=O)c1c(C)oc2nc(C)nc(NCCc3ccc(SC)cc3)c12 the results were VDR inh 13%.
Screening Cc1cccc(N2CCN(C(=O)c3ccnn3C)CC2)c1C returned VDR inh -1%.
`O=C(Cc1ccccc1[N+](=O)[O-])NCC1(c2cccc3c2OCO3)OCCO1` gave VDR inh -15%.
`COc1ccc(/C=N/n2c(SC)nnc(C(C)(C)C)c2=O)cc1` gave VDR inh 4%.
COC(=O)c1cc2oc3ccccc3c2n1Cc1nc(-c2ccccc2C)oc1C was read as VDR inh -15%.
For COc1cccc2cc(C(=O)N(C)C3CCN(C)CC3)c(=O)oc12 the results were VDR inh 15%.
Screening O=C(CSCC(=O)N1CCN(c2ccccc2)CC1)Nc1nc(-c2ccc(Cl)s2)cs1 returned VDR inh 0%.
For Cc1ccc(S(=O)(=O)NCc2n[nH]c(=S)n2C)cc1 the results were VDR inh -4%.
OCCCc1nc2ccccc2[nH]1 was read as VDR inh 15%.
`COC(=O)C1NN=C(C(=O)c2ccc(Br)cc2)C1c1cccc(Br)c1` (configuration not stated) gave VDR inh -6%.
`Cc1ccc(CN2CCSc3ccc(C(=O)NCCCN4CCOCC4)cc32)cc1` gave VDR inh 16%.

Overlap with the part before: 2 compounds; new compounds follow.
`COC(=O)C1NN=C(C(=O)c2ccc(Br)cc2)C1c1cccc(Br)c1` (configuration not stated) gave VDR inh -6%.
`Cc1ccc(CN2CCSc3ccc(C(=O)NCCCN4CCOCC4)cc32)cc1` gave VDR inh 16%.
Screening CCOC(=O)c1cnc2c(C)cccc2c1Nc1cccc(C(=O)O)c1 returned VDR inh 3%.
Screening COCCOC(=O)C1=C(N)OC2=C(C(=O)CCC2)C1c1cccnc1 (configuration not stated) returned VDR inh 1%.
For O=C(Cn1nnc(-c2ccc(Cl)cc2)n1)NC1CCN(Cc2ccccc2)CC1 the results were VDR inh -13%.
CCOCCCn1c(=N)c(C(=O)NC(C)c2ccccc2)cc2c(=O)n3cccc(C)c3nc21 (configuration not stated) was read as VDR inh 3%.
O=S(=O)(Nc1cccc(-c2nnco2)c1)c1ccc(F)cc1F was read as VDR inh -8%.
For COCCCNC(=O)/C(C#N)=c1\s/c(=C\c2ccccc2OC(F)F)c(=O)n1CCCOC the results were VDR inh -9%.
For O=C(CSc1nnc(SCc2ccccc2Cl)s1)N/N=C/c1c[nH]c2ccccc12 the results were VDR inh -18%.
For CCN1CCN(c2nc3c(C)cccn3c(=O)c2/C=C(\C#N)C(=O)NC)CC1 the results were VDR inh 7%.
Screening Cc1ccccc1C(=O)Nc1cccc(-c2cn3cccnc3n2)c1 returned VDR inh 3%.
`Cc1c(C(=O)C(C)C)n(C)c2ccccc12` gave VDR inh 11%.
O=C(CSc1nncn1-c1ccccc1)N1CCCC1 was read as VDR inh 27%.
`CN(C(=O)c1cccc(NC(=O)C2CCN(C(=O)OC(C)(C)C)CC2)c1)C1CCC1` gave VDR inh 7%.
Screening COc1ccc(/C=C2\SC(=O)N(CCNC(=O)C3CC4C=CC3C4)C2=O)cc1 (configuration not stated) returned VDR inh -8%.
Screening CCOC(=O)c1c(NC(=O)C2CC=CCC2C(=O)O)sc(C)c1CC (configuration not stated) returned VDR inh inconclusive.
`O=C(Nc1ccc(C(=O)N2CCCCC2)cc1)c1ccccc1Cl` gave VDR inh -4%.

17 compounds already listed, ordered by SMILES length, largest number first.
For COCCCNC(=O)/C(C#N)=c1\s/c(=C\c2ccccc2OC(F)F)c(=O)n1CCCOC the results were VDR inh -9%.
`CN(C(=O)c1cccc(NC(=O)C2CCN(C(=O)OC(C)(C)C)CC2)c1)C1CCC1` gave VDR inh 7%.
`CC(C(=O)Nc1ncc([N+](=O)[O-])s1)N1C(=O)c2ccccc2S1(=O)=O` (configuration not stated) gave VDR inh -15%.
Screening O=C(CSCC(=O)N1CCN(c2ccccc2)CC1)Nc1nc(-c2ccc(Cl)s2)cs1 returned VDR inh 0%.
`O=C(Cc1ccccc1[N+](=O)[O-])NCC1(c2cccc3c2OCO3)OCCO1` gave VDR inh -15%.
For O=C(Cn1nnc(-c2ccc(Cl)cc2)n1)NC1CCN(Cc2ccccc2)CC1 the results were VDR inh -13%.
`Cc1ccc(CN2CCSc3ccc(C(=O)NCCCN4CCOCC4)cc32)cc1` gave VDR inh 16%.
Screening CCOC(=O)c1c(NC(=O)C2CC=CCC2C(=O)O)sc(C)c1CC (configuration not stated) returned VDR inh inconclusive.
For COc1cccc2cc(C(=O)N(C)C3CCN(C)CC3)c(=O)oc12 the results were VDR inh 15%.
`COc1ccc(/C=N/n2c(SC)nnc(C(C)(C)C)c2=O)cc1` gave VDR inh 4%.
O=S(=O)(Nc1cccc(-c2nnco2)c1)c1ccc(F)cc1F was read as VDR inh -8%.
Screening Cc1ccccc1C(=O)Nc1cccc(-c2cn3cccnc3n2)c1 returned VDR inh 3%.
For Cc1ccc(S(=O)(=O)NCc2n[nH]c(=S)n2C)cc1 the results were VDR inh -4%.
NS(=O)(=O)c1ccc(N/N=C/c2ccccc2Br)cc1 was read as VDR inh -3%.
Screening Cc1cccc(N2CCN(C(=O)c3ccnn3C)CC2)c1C returned VDR inh -1%.
For Cc1ccc(N=Cc2cc(C)n(C3CCCC3)c2C)cc1 the results were VDR inh 11%.
OCCCc1nc2ccccc2[nH]1 was read as VDR inh 15%.

Further results follow:
Nc1nc(=S)c2ncn(C3CCCC3)c2[nH]1 was read as VDR inh -20%.
Screening COc1ccc(N=Cc2ccc(-c3ccccc3)o2)cc1 returned VDR inh -4%.
Screening O=C(O)/C=C/c1cccc(OCc2ccccc2)c1 returned VDR inh 1%.
CCCCOC(=O)c1ccc(NC(=O)/C(C#N)=C/c2ccc(-c3ccccc3)o2)cc1 was read as VDR inh 19%.
Screening O=C(NCCc1ccccc1)c1ccc(Br)o1 returned VDR inh -2%.
COc1ccc(Cc2[nH]n3c(=O)c(Cl)c(C)nc3c2-c2ccccc2)cc1 was read as VDR inh inconclusive.
For CCCNC(=O)c1ccc(N2CCC3(CC2)CC(c2ccccc2)=NO3)c(NC(=O)c2cccc(C)c2)c1 the results were VDR inh -7%.
N/C(Cc1ccc(Cl)cc1)=N\OC(=O)c1ccc2ccccc2c1 was read as VDR inh 1%.
For CC(=O)N1c2ccc(S(=O)(=O)N3CCCC(C(=O)Nc4ccc(C)cc4C)C3)cc2CC1C (configuration not stated) the results were VDR inh -12%.
COc1cccc2sc(N(Cc3cccnc3)C(=O)COc3ccccc3)nc12 was read as VDR inh -10%.
For O=C(CSc1cccc[n+]1[O-])Nc1cccc(S(=O)(=O)NC2=NCCCCC2)c1 the results were VDR inh 2%.
COc1cc(-c2cn(S(=O)(=O)c3cccc4nsnc34)nc2N)cc(OC)c1OC was read as VDR inh 15%.
COc1cccc(NC(=O)c2ccncc2)c1 was read as VDR inh 10%.
Cc1cc(C(=O)OCC(=O)N2CC(C)CC(C)C2)c(C)o1 (configuration not stated) was read as VDR inh 6%.
`Cc1cc2c(NCCc3ccccc3)ncnc2s1` gave VDR inh -5%.
Screening O=C(/C=C/c1ccc(Cl)c([N+](=O)[O-])c1)c1ccc(O)cc1 returned VDR inh inconclusive.
Cc1ccccc1N1CCN(C2CCCN(C(=O)c3ccnn3C)C2)CC1 (configuration not stated) was read as VDR inh -4%.
Screening COCCN(C(=O)COC(=O)CCSc1ccc(F)cc1)c1c(N)n(Cc2ccccc2)c(=O)[nH]c1=O returned VDR inh 15%.
For CCOC(=O)Cc1csc(NC(=O)CN(C)S(=O)(=O)c2ccc3c(c2)CCC(=O)N3)n1 the results were VDR inh 4%.
For Cc1cccc(NC(=O)CN2C(=O)CNC2=O)c1 the results were VDR inh 8%.
COc1ccccc1CN1C(=O)c2ccncc2C1=O was read as VDR inh 5%.
`Nc1ncnc2c1CN(Cc1ccccc1)CC2` gave VDR inh -1%.
Screening Cc1ccccc1-c1noc(-c2ccc(NC3CCCC3)c([N+](=O)[O-])c2)n1 returned VDR inh 19%.
Screening Cc1cccc(-c2nc3scc(CCNS(=O)(=O)c4ccc(F)cc4C)n3n2)c1 returned VDR inh 13%.
For Cc1sc(NC(=O)CN2CCN(c3ccccn3)CC2)c(C#N)c1C the results were VDR inh 37%[activator].
NC(=O)/C(=C\c1cccnc1)NC(=O)c1ccccc1 was read as VDR inh inconclusive.
COc1cccc(CNC(=O)c2sc3nc[nH]c(=O)c3c2C)c1 was read as VDR inh 1%.
For COc1ccc(NC(=O)CCNS(=O)(=O)c2ccc3c(c2)CCCC(=O)N3)cc1Cl the results were VDR inh 1%.
O=C(NCCc1ccc(C(F)(F)F)cc1)c1ccc2c(c1)OCO2 was read as VDR inh -17%.
Screening CCOC(=O)c1c(NC(=S)Nc2ccc(F)cc2)sc2c1CCC2 returned VDR inh -10%.
`COc1cc(OC)c(Nc2ncnc3onc(-c4cccc(Cl)c4)c23)cc1Cl` gave VDR inh -17%.
CC(OC(=O)/C=C/c1ccc(Br)cc1)C(=O)N1CCOCC1 (configuration not stated) was read as VDR inh -13%.
`O=C(CC1C(=O)NCCN1Cc1c(F)cccc1Cl)NC1CCCC1` (configuration not stated) gave VDR inh -15%.
CCC(Sc1nnc(-c2ccco2)n1C)C(=O)Nc1nnc(C)s1 (configuration not stated) was read as VDR inh 2%.
`Cc1ccc(NC(=O)CN2C(=O)CC(c3ccc(C)c(C)c3)=Nc3ccccc32)cc1` gave VDR inh 3%.
Screening Cc1cc2c(Nc3cccc(O)c3)ncnc2s1 returned VDR inh 4%.
O=C(COc1cccnc1[N+](=O)[O-])NCc1cccs1 was read as VDR inh -19%.
COc1ccccc1NC(=O)c1ccc2[nH]c(C)c(C)c2c1 was read as VDR inh 12%.
For O=C(NN=Cc1ccccc1)NN=Cc1ccccc1 the results were VDR inh -10%.
For COc1ccc(C(C)=O)cc1CC(=O)N(Cc1ccccc1)c1ccccc1 the results were VDR inh -18%.
Cc1nc2sc(C(c3cccc(F)c3)N3CC(C)OC(C)C3)c(O)n2n1 (configuration not stated) was read as VDR inh -9%.
Screening CCOC(=O)c1cc(-c2ccc(C)cc2)n(CC(=O)NC2CCCCCC2)c1C returned VDR inh 0%.
For O=C(NC1CCCN(Cc2ccc(Cl)cc2)C1)C1CCC1 (configuration not stated) the results were VDR inh 7%.
`COc1ccc(/C=N/NS(=O)(=O)c2ccc(F)cc2)cc1CN1CCSCC1` gave VDR inh -11%.
For Cn1nc(CC(=O)NC2CCCCC2)c2ccccc2c1=O the results were VDR inh -5%.

2 entries drawn at random from those above, as already listed:
Screening CCOC(=O)c1cnc2c(C)cccc2c1Nc1cccc(C(=O)O)c1 returned VDR inh 3%.
COc1cccc2sc(N(Cc3cccnc3)C(=O)COc3ccccc3)nc12 was read as VDR inh -10%.

Carrying on.
CCOc1ccc(NS(=O)(=O)c2ccc(C(=O)NC3CCN(Cc4ccccc4)CC3)cc2)cc1 was read as VDR inh -8%.
Screening CCCSc1cc(NCCOC(C)=O)c([N+](=O)[O-])c2nonc12 returned VDR inh inconclusive.
COc1ccc(NCc2cc3cc4c(cc3n(CC(=O)Nc3cc(C)ccc3C)c2=O)OCCO4)cc1 was read as VDR inh 26%.
For S=c1[nH]nc(C2CCCCC2)n1Cc1ccccc1 the results were VDR inh -4%.
For Cc1cc(C)n2nc(CNS(=O)(=O)c3ccc(F)cc3)nc2n1 the results were VDR inh -5%&10%.
CC(C)c1ccc(NC2CCCN(C(=O)CSc3nncn3C)C2)cc1 (configuration not stated) was read as VDR inh -9%.
For O=C1COc2ccc(C(=O)COc3ccc([N+](=O)[O-])cc3)cc2N1 the results were VDR inh -14%.
Screening O=C(C1CC1)N1CCc2cc(S(=O)(=O)NCC3COc4ccccc4O3)ccc21 (configuration not stated) returned VDR inh 5%.
`O=C(CCn1c(=S)[nH]c2ccccc2c1=O)Nc1ccc(F)cc1` gave VDR inh 11%.
Screening NC(=O)CC(NC(=O)Cc1cccc2ccccc12)c1ccc(NCc2ccc(F)cc2)c([N+](=O)[O-])c1 (configuration not stated) returned VDR inh -21%.
Screening Cc1ccc(NC(=O)c2oc3ccccc3c2NC(=O)C2CCCCC2)cc1 returned VDR inh 12%.
For Cn1c(SCC(=O)NC(c2ccccc2)c2ccccc2)nnc1-c1cccs1 the results were VDR inh inconclusive.
`CCOc1ccccc1NC(=O)C1CCCC1` gave VDR inh 11%.
CCCOP(=O)(c1ccc(N(C)C)cc1)C(O)c1ccc(Cl)cc1Cl (configuration not stated) was read as VDR inh 10%.
CCOc1ccc(OCCC(=O)OCC(=O)NNC(=O)c2ccccc2)cc1 was read as VDR inh 7%.
`CCOC(=O)c1nnn(CC(=O)Nc2cccc(OC)c2)c1C(=O)OCC` gave VDR inh 17%.
Screening COc1ccc(Br)cc1C(=O)N/N=C/c1ccc([N+](=O)[O-])cc1 returned VDR inh 2%.
Screening CC1(C)CC(NCc2cccc([N+](=O)[O-])c2)CC(C)(C)N1 returned VDR inh -9%.
`Cc1ccc2c(c1)c1c3n2CCN=C3CCC1` gave VDR inh 25%.
Screening CCc1noc(C)c1C(=O)Nc1nc(-c2ccc(Cl)cc2Cl)cs1 returned VDR inh 0%.
For CC(OC(=O)Cc1ccc(Br)cc1)C(=O)NC1CCCCC1C (configuration not stated) the results were VDR inh -5%.
`C#CCSC1=C(C#N)C(c2cccs2)C(C(=O)OCC)=C(C)N1` (configuration not stated) gave VDR inh -10%.
Cc1cc(C)c(NC(=O)CSc2ccnc(=O)[nH]2)c(C)c1 was read as VDR inh 12%.
O=C(Nc1cnn(Cc2ccccc2)c1)c1nc2ncccn2n1 was read as VDR inh 5%.
COc1ccc(C(=O)Nc2ccc(S(=O)(=O)Nc3cnc4ccccc4n3)cc2)cc1 was read as VDR inh 9%.
Screening Cc1cc(NS(=O)(=O)c2ccc(NC(=O)C(F)(F)F)cc2)nc(C)n1 returned VDR inh -1%.
